Source: PubChem BioAssay
GIV-Gai inh – blocks GIV peptide binding to rat Galpha-i3; 210,000 compounds, 0.42% hits; Galpha-i3/FITC-GIV peptide fluorescence polarization, 90 min; hits give low values; scaled: aluminum fluoride 0%, vehicle 100%; P08753; percent of control (FP), % (concentration not given with the values);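 active means replicate mean at 85% of control or lower, very high polarization wells dropped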;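 further: wells of about 15 µL received 100 nL stock; the first replicate is given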
Target sequence (P08753 whole entry, looked up): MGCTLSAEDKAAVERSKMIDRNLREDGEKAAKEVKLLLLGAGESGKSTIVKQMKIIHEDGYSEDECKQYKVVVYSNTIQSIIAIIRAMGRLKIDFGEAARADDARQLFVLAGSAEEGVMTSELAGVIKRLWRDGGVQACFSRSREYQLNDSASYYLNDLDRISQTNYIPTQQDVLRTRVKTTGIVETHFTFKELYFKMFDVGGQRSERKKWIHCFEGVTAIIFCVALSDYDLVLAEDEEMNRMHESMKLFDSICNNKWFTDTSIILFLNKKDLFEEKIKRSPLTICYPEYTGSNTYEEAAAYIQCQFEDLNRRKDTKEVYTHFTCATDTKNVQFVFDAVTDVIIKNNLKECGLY
Sa growth inh – inhibitors of Staphylococcus aureus growth at 42 °C; S. aureus RN4220 growth, OD600, 20 h; hits give low values; 170,000 compounds, 0.53% hits; relative growth, % (test concentration not listed);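 active means growth at 42 °C up to 50% and 20 or more points under that at 30 °C, or under 10% at both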;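 further: 300 nL library stock went into each well; scaled to the means of positive and negative controls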
HCMV NEC inh – cytomegalovirus nuclear egress complex inhibition; HTRF UL50-UL53 interaction, normalized percent inhibition; AID 1918969; 190,000 compounds, 0.15% hits; inhibition, % (test concentration not listed);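 active means both replicates at 50% or more, plus weaker picks with an unusually low signal ratio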;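 further: stock transfer was 100 nL into about 20 µL; 0% = negative control wells and 100% = wells with untagged competitor protein; inactives centre near -12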
Sa growth inh second temp – recorded beside Sa growth inh, whose call it bears; relative growth, %; measured here: growth at 30 °C;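 optical density after 20 h as mean of two plates; 100% = untreated growth and lower means inhibition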
The depositor's hits bear a star; nt = no result given; & = joins results of further samples.

Value order: GIV-Gai inh | Sa growth inh | Sa growth inh second temp | HCMV NEC inh
> CC(=O)N1c2ccccc2CCc2ccc(NC(=S)NC(=O)/C=C/c3ccccc3)cc21
→ nt | 67 | 96 | 4
> CCCc1nc2ccccc2c2nc(N)nn12
→ 107 | 76 | 87 | nt
> COc1ccc(C(Nc2nc(C)cc(C)n2)c2c(NC(=O)c3ccccc3)sc(C)c2C)cc1 (configuration not stated)
→ 111 | nt | nt | 0
> CN(C)c1ccc(C=C2C(=O)OC(C)(C)OC2=O)cc1
→ 115 | 81 | 79 | -25
> O=S(=O)(c1ccc(-n2cccn2)cc1)N1CCCC1
→ 106 | 91 | 84 | nt
> Cc1ccc(S(=O)(=O)N2CCN(C(=O)c3c(C)nn(-c4ccccc4)c3Cl)CC2)cc1
→ 99 | 83 | 114 | 0
> COc1cccc(-c2nc3c(C#N)c[nH]n3c2NC2CCCC2)c1OC
→ 100 | 103 | 89 | -14
> C=C(C)CC(Nc1ccccc1F)c1ccco1 (configuration not stated)
→ 109 | 99 | 88 | nt
> CC(C)NC(=O)c1ccc(CN2CCN(Cc3ccccc3)C2=O)cc1
→ 101 | nt | nt | -9
> O=C(Cc1ccc(Cl)cc1)Nc1cc(-n2cnnn2)ccc1Cl
→ 101 | nt | nt | -30
> Cc1cccc(CN2CCN(CC(=O)NCc3ccc(Cl)cc3)C2=O)c1
→ 102 | 111 | 61 | -14
> CCCOC(=O)CC1C(=O)NCCN1Cc1ccccc1 (configuration not stated)
→ 109 | 103 | 105 | 0
> Cc1ccc(NC(=O)N2CCc3cc(S(=O)(=O)N4CCC(C)CC4)ccc32)cc1C
→ 102 | 95 | 93 | -3
> COC(=O)c1ccccc1NC(=O)Cn1c(SCC(=O)NCc2ccccc2)nc2ccccc21
→ 101 | nt | nt | -4
> CCOC(=O)Nc1ccccc1C(=O)OC
→ 107 | 99 | 92 | 2
> Cc1ccc2c(=O)cc(C(=O)Nc3nnc(CC(C)C)s3)oc2c1C
→ 98 | 103 | 89 | -54
> CC(CN=CC1=C(O)CC(C)(C)CC1=O)c1ccccc1 (configuration not stated)
→ 108 | 107 | 109 | -14
> Cc1c(C(=O)N2CCC(C(=O)Nc3ccc(F)cc3)CC2)sc2nc[nH]c(=O)c12
→ 106 | 88 | 90 | nt
> COc1ccc(C2c3c(-c4ccccc4O)n[nH]c3C(=O)N2CCc2ccccc2)cc1 (configuration not stated)
→ 97 | 104 | 94 | -3
> CCOc1ccc(NC(=O)C(CC)n2c(=O)c(-c3ccccc3NC(C)=O)nc3ccccc32)cc1 (configuration not stated)
→ 103&110 | 102 | 86 | -8&24

Value order: GIV-Gai inh | Sa growth inh | Sa growth inh second temp | HCMV NEC inh
> CC1CN(/C=C(\C#N)S(=O)(=O)c2ccc(Br)cc2)CC(C)O1 (configuration not stated)
→ 106 | 94 | 86 | -46
> N/C(C[n+]1ccccc1)=N\O
→ 102 | 101 | 107 | nt
> CCC1CN(C(=O)Nc2ccc(C(=O)O)cc2)c2cc(Cl)ccc2O1 (configuration not stated)
→ 99 | 108 | 89 | -2
> Cc1cccc(NC2=NC(c3ccc(C(C)C)cc3)n3c(nc(C)cc3=O)N2)c1 (configuration not stated)
→ 93 | nt | nt | -4
> COC(=O)c1ccc(CSc2nncn2N)o1
→ 101 | 116 | 86 | nt
> COc1ccc(CNC(=O)Cn2ncn3nc(-c4cccs4)cc3c2=O)cc1
→ 97 | 101 | 95 | -18
> Cc1nc(Nc2ccc(NS(=O)(=O)c3cccc(Br)c3)cc2)cc(N(C)C)n1
→ 99 | nt | nt | -32
> Cc1ccc(CNC(=O)c2c(-c3ccc(F)cc3F)noc2C)o1
→ 105 | 93 | 88 | nt
> c1ccc(-n2ncc3c(NC4CCCCC4)ncnc32)cc1
→ 102 | 84 | 81 | -15
> CC1(C)CC2=NN(c3ccccc3)P(=O)(N3CCCc4ccccc43)C2=C(N2CCCC2)C1 (configuration not stated)
→ nt | 69 | 82 | -30
> CCc1ccc(NC(=O)CN(c2ccc3c(c2)OCO3)S(=O)(=O)c2c(C)noc2C)cc1
→ 104 | 103 | 96 | nt
> Fc1ccc(C(NCCc2ccc(Cl)cc2)c2nnc(-c3ccccc3Cl)o2)cc1 (configuration not stated)
→ 102 | 99 | 96 | -5
> CCC(Sc1nc2ccccc2c(=O)n1CCc1ccc(OC)c(OC)c1)C(=O)N1CCOCC1 (configuration not stated)
→ 102 | 86 | 101 | -5
> Cc1cc(Cl)ccc1NC(=O)CN(c1ccccc1Br)S(C)(=O)=O
→ 107 | 97 | 84 | -66
> O=C(NC1CCCCC1)c1ccc2c(c1)N(Cc1ccccc1Cl)C(=O)CS2
→ 98 | nt | nt | 12
> CCn1c(C(=O)OC)cc2c1ccn2-c1ccc(F)cc1
→ 102 | 108 | 87 | 22
> O=C(C1COc2cc(S(=O)(=O)Nc3ccc(Cl)cc3)ccc2O1)N1CCCC1 (configuration not stated)
→ 98 | 95 | 86 | nt
> O=C(/C=C/c1ccco1)Nc1ccc2nn(-c3ccccc3)nc2c1
→ 106 | 122 | 101 | -12
> CCOc1ccc(S(=O)(=O)N2CCN(C(=O)C3COc4ccccc4O3)CC2)cc1 (configuration not stated)
→ nt | 104 | 89 | -7
> O=C(NC(=O)c1ccccc1O)c1ccc(C(F)(F)F)cc1
→ 99 | 92 | 80 | -18

Value order: GIV-Gai inh | Sa growth inh | Sa growth inh second temp | HCMV NEC inh
> CCCC(CCC)C(=O)Nc1cccc(-c2nc3ncccn3c2C)c1
→ 97 | 83 | 73 | -11
> CCOc1ccc(C2=CC(c3cc(Br)ccc3F)n3ncnc3N2)cc1Cl (configuration not stated)
→ 117 | 113 | 74 | nt
> COc1ccc(-c2csc(-c3nc(-c4ccc(OC)c(OC)c4)cs3)n2)cc1OC
→ 107 | nt | nt | 11
> O=C(NC1CCOC1=O)c1ccc(COc2ccc(Cl)cc2Cl)o1 (configuration not stated)
→ nt | 97 | 88 | -10
> CCOc1ccc(-c2nnc(SCC(=O)N(CC)c3cccc(C)c3)o2)cc1
→ 97 | 106 | 76 | 2
> O=C(O)CCC(=O)Nc1nc2ccccc2s1
→ 93 | 86 | 92 | 1
> CCC(C)NC(=O)c1ccc(NC(=O)N2CCSc3ncccc32)cc1 (configuration not stated)
→ 106 | nt | nt | -1
> COc1ccc(-c2nc(N)ncc2-c2cscn2)c(O)c1
→ nt | 110 | 77 | 0
> Cc1csc(=O)n1CCOC(=O)c1ccc2[nH]c3c(c2c1)CCCC3
→ nt | 81 | 74 | -21
> CCC(C)n1nnc2cc(S(=O)(=O)N3CCC(C(=O)NCc4cccnc4)CC3)ccc21 (configuration not stated)
→ 106 | nt | nt | -13
> COc1ccccc1Cn1c(CNS(=O)(=O)c2ccccc2Cl)nc2cccnc21
→ 111 | 88 | 49 | nt
> CCCN(C(=O)c1nn(-c2ccc(OC)cc2)c(=O)c2c1c1ccccc1n2C)c1ccc(CC)cc1
→ 100 | 100 | 86 | -11
> Cc1cc(C(=O)NC2CCCCCC2)no1
→ nt | 102 | 100 | -39
> Cc1cc(C(=O)N/N=C/c2ccc(O)cc2)c2ccccc2n1
→ 103 | 102 | 102 | -14
> CC1Oc2ccccc2OC1(O)c1ccccn1 (configuration not stated)
→ nt | 102 | 104 | 14
> CC(C)(C)c1ccc(CSc2nc3c(c(=O)[nH]2)CCC3)cc1
→ 99 | 105 | 94 | -8
> COc1ccc(C(=O)c2cnc3ccc(C)cc3c2S(=O)(=O)c2ccccc2)cc1
→ 100 | 108 | 88 | -32
> CCOC(=O)c1sc2ncnc(Nc3ccc(OCC)cc3)c2c1C
→ 99 | 81 | 83 | nt
> COc1cc(OC)c(NC(=O)c2cc3c(=O)oc4ccccc4c3n2C)cc1Cl
→ 108 | nt | nt | 8
> O=C(NCc1ccccn1)c1ccc(/C=N/O)nc1
→ 101 | 74 | 81 | nt

Value order: GIV-Gai inh | Sa growth inh | Sa growth inh second temp | HCMV NEC inh
> CCC1(c2cccc(OC(=O)C3CCCCC3)c2)CCCCN(C)C1=O (configuration not stated)
→ 110 | 93 | 97 | 6
> Cc1[nH]c(=S)[nH]c(=O)c1Cc1ccc(C(=O)O)o1
→ 96 | 95 | 96 | -14
> COc1ccc(NC(=O)Cn2c(=O)c(-c3cc(C)ccc3NC(C)=O)nc3ccccc32)c(OC)c1
→ 100 | 94 | 83 | -15
> Cc1ccc(CSc2nc3cccnc3n2Cc2nc(-c3ccccc3F)oc2C)cc1
→ 105 | 109 | 91 | nt
> CCOC(=O)C1CCN(C(=O)Cn2nc(C)n3c(cc4cc(C)ccc43)c2=O)CC1
→ 97 | 97 | 86 | -53
> CCOC(=O)c1ccc(NC(=O)C2CC(=O)N(C)C(=Nc3ccccc3OC)S2)cc1 (configuration not stated)
→ 101 | nt | nt | -19
> COc1ccccc1N1C(=O)C(Cc2ccccc2)N=C1N1CCC(C(N)=O)CC1 (configuration not stated)
→ 104 | nt | nt | -2
> CCOC(=O)c1sc2ncn(CC(=O)Nc3ccc(N(C)C)cc3)c(=O)c2c1C
→ 109 | 101 | 93 | -63
> CN1CCN(C(=O)C2CCN(c3nnc(N4CCCC4=O)s3)CC2)CC1
→ 104 | nt | nt | 5
> CCc1nnc2n1NC(c1ccc(OC)cc1)C(C(=O)Nc1ccc(C)cc1C)S2 (configuration not stated)
→ 104 | nt | nt | -2
> CCCN(Cc1ccccc1)S(=O)(=O)c1ccc(N2C(=O)CCC2=O)cc1
→ nt | 114 | 83 | -13
> COCCNC(=O)c1cc2c(=O)n(C)c3ccccc3c2s1
→ 102 | 107 | 91 | -3
> CC(=O)Oc1cccc(C(=O)N2CCC(C)CC2)c1
→ 104 | 99 | 103 | -33
> c1ccc(-c2cc(NCc3cccnc3)n3nc(-c4cccnc4)nc3n2)cc1
→ 108 | nt | nt | -8
> Cc1cc(C)cc(NC(=O)COC(=O)c2cccnc2Cl)c1
→ nt | 106 | 98 | -3
> CC(C)(C)c1ccc(-c2cc(N)n(S(=O)(=O)c3cccc4nsnc34)n2)cc1
→ 102 | 107 | 93 | -26
> COc1cc(NC(=O)c2cc(-c3cccc(Cl)c3)on2)c(OC)cc1Cl
→ 97 | 104 | 93 | 8
> CCOC(=O)c1cc2cc(Cl)ccc2oc1=O
→ 103 | 95 | 93 | -83
> CCOC(=O)c1sc(NC(=O)C(C)Sc2nc(-c3ccccc3)cc(C(F)(F)F)n2)c(C(=O)OC)c1C (configuration not stated)
→ 98 | 96 | 103 | 15
> CC(C)CNc1ncnc2c1nnn2C
→ 98 | 95 | 90 | nt

Value order: GIV-Gai inh | Sa growth inh | Sa growth inh second temp | HCMV NEC inh
> Cc1ccc(OC(C)C(=O)Nc2nonc2-c2ccc(Br)cc2)cc1C (configuration not stated)
→ 105 | 116 | 84 | -12
> Clc1ccc2c(N3CCOCC3)ccnc2c1
→ 106 | 103 | 83 | -21
> CC(C)Cn1cc(C(=O)NCC2CCCO2)c2c3ccccc3n(C)c2c1=O (configuration not stated)
→ 98 | 88 | 89 | -23
> CCOc1ccc(CC(C(N)=O)C(N)=O)cc1
→ 102 | 93 | 89 | -28
> CCCCOc1ccc(-c2cc3c(=O)n(CC(=O)Nc4ccc(OC)c(OC)c4)ccn3n2)cc1
→ 98 | nt | nt | -14
> COc1ccc(-c2cc(C(C)=O)c(C)n2CCC(=O)NC2CCCCC2)cc1
→ 104 | 89 | 83 | nt
> Cc1oc(-c2ccccc2F)nc1CS(=O)(=O)CC(=O)N1C(C)CCCC1C (configuration not stated)
→ 104 | 130 | 94 | 0
> Cc1cnc(C(=O)NCc2ccc(Cl)cc2Cl)cn1
→ nt | 102 | 99 | -14
> Cc1ccc(CN2CCC(CNC(=O)Nc3cccc(C)c3C)C2)cc1 (configuration not stated)
→ 101 | 103 | 88 | 6
> O=C1c2ccccc2C(=O)C1(O)N1CCOCC1
→ 93 | 90 | 78 | 30
> CCCCNc1cc(N2CCC(C)CC2)c2noc3c2c1C(=O)c1ccccc1-3
→ 2.5* | nt | nt | -60
> COc1cc(/C=C2\C(=O)Nc3ccc(Cl)cc32)cc(OC)c1OC
→ nt | 107 | 92 | -9
> Nc1ccc(Br)cc1C(O)c1ccccc1 (configuration not stated)
→ 104 | 105 | 96 | nt
> O=C1SCCC1NS(=O)(=O)c1cc(C(F)(F)F)cc(C(F)(F)F)c1 (configuration not stated)
→ 105 | 137 | 69 | -10
> Cc1sc2c(c1C)c(=O)n(-c1ccccc1)c1nnc(SCC(=O)c3ccc(Cl)cc3)n21
→ 106 | nt | nt | 7
> CC1CCN(c2ccc3nncn3n2)CC1
→ 97 | nt | nt | -33
> CC(=O)Nc1ccc(C(=O)Nc2ccccn2)cc1
→ 108 | 91 | 51 | 7
> CC(CC(=O)O)CC(=O)Nc1ccccn1 (configuration not stated)
→ 98 | 103 | 96 | -10
> O=S1(=O)N=C(N2CCc3ccccc32)c2ccccc21
→ 104 | 109 | 92 | -5
> CC(C)CNC(=O)c1cc(-c2ccccc2O)on1
→ 102 | 117 | 98 | nt
> CCC(=O)Nc1nc(C)c(-c2csc(Nc3ccc(S(N)(=O)=O)cc3)n2)s1
→ 101 | 91 | 78 | 12

Not a hit list, and some 0.83% of all compounds hit somewhere here.
